From PubChem BioAssay
RanGTP-Imp inh = disruptors of Ran-importin-beta complex formation – biochemical, FRET, CFP-Ran, YFP-importin-beta, homogeneous, primary screen; cell-free CFP-Ran/YFP-importin-beta FRET ratio; inhibition, % (test concentration not listed); 300,000 tested, 1.1% active; AID 2216;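 active means most replicates above 15%; inconclusive means exactly half above 15%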;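 further: 0% = DMSO wells and 100% = Ran loaded with GDP instead of GTP; wells of about 40 µL received 100 nL stock; the first replicate is given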
UCH37 inh = inhibitors of human deubiquitinating enzyme UCH37; Q9Y5K5; purified proteasome/UCH37, Ub-AMC cleavage fluorescence; inhibition, % (no concentration beside the values); 330,000 tested, 0.33% active; AID 588478;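 active means mean of two replicates above 20%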;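 further: 0% = compound-free wells with enzyme and 100% = wells lacking proteasome; stock transfer was 100 nL into about 20 µL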
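Reagent: Ub-AMC substrate; assay system: Proteasome-associated human UCH37 deubiquitinase; controls: no-proteasome and no-compound wells; read-out: % inhibition of Ub-AMC cleavage fluorescence; timing: 30 min preincubation with enzyme, 25 min cleavage at room temperature; signal: AMC fluorescence from Ub-AMC cleavage, excitation 355 nm, emission 460 nm; buffer or medium: Tris-HCl pH 7.4 plus ovalbumin, ATP-MgCl2, DTT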
FGF22 binding = shifts melting point of recombinant human FGF22 | Q9HCT0 | recombinant FGF22 thermal shift, SYPRO orange fluorescence; percent of sucrose octasulfate shift, DMSO zero | calls only at 9.99 µM | 340,000 tested, 1.5% active | AID 651658;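 active means melting point raised past a set limit in the mean and every replicate; inconclusive means no clear call; three in four hits are not shown here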
Vif TR-FRET = HIV-1 Vif–A3G interaction blockers – biochemical, TR-FRET, GST-Vif 1-94, biotin-A3G peptide, dose response retest, primary screen (AID 1117319) | 260,000 tested, 0.57% active | one-dose inhibition, %; IC50 in µM for titrated hits | TR-FRET GST-Vif / biotin-A3G peptide binding; higher % means a stronger effect; test concentration not given here; strong numbers were not always called active;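 active means above the screen mean plus three standard deviations and confirmed in dose response; inconclusive means results disagree or hit not tested in dose response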;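 further: Vif residues 1-94 fused to GST binding biotinylated APOBEC3G peptide 110-148; 0% = full assay without inhibitor and 100% = GST in place of GST-Vif; retest series ran down from 100 µM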
HNF4A DNA FP = change in binding of human HNF4 alpha to DNA; HNF4a-FITC DNA binding, fluorescence polarization, 1 h; AID 1224865; 360,000 tested, 0.3% active; P41235; activity change, % at 10 µM; in the data active means activity change above about 30%, passing the limit was not always enough;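 further: controls were the assay level and a saturating level of protein; the project sought stronger binding though the title names inhibitors; some compounds called inactive have numbers as strong as hits; positive values seem to mean higher polarization but the record does not say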
Target sequence (P41235 whole entry, looked up): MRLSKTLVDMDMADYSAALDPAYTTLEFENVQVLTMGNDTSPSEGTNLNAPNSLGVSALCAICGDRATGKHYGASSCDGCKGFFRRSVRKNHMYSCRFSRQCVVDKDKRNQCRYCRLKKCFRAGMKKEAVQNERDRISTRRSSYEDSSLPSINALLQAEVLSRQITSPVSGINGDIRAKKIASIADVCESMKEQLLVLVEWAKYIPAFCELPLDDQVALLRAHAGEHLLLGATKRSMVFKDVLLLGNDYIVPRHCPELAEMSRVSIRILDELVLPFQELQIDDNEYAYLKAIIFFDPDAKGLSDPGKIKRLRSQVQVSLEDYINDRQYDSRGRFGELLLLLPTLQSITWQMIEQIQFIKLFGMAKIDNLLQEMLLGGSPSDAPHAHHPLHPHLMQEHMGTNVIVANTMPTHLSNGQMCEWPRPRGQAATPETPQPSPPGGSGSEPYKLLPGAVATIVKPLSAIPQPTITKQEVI
AF4-AF9 inh = MLL-AF4/AF9 protein interaction inhibition; 350,000 tested, 0.47% active; inhibition, % at 10 µM; AlphaScreen, biotin-AF4 peptide binding to FLAG-AF9; AID 651704; P42568;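 active means every replicate reaching a set inhibition limit, whatever the replicate mean, cut at about 25% in these data; inconclusive means mean inhibition reaches that limit but some replicates miss it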;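 further: 0% = plate neutral control median and 100% = total signal loss; the record names both 10 and 1 µM as test concentration; the first replicate is given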
Target sequence (P42568 whole entry, looked up): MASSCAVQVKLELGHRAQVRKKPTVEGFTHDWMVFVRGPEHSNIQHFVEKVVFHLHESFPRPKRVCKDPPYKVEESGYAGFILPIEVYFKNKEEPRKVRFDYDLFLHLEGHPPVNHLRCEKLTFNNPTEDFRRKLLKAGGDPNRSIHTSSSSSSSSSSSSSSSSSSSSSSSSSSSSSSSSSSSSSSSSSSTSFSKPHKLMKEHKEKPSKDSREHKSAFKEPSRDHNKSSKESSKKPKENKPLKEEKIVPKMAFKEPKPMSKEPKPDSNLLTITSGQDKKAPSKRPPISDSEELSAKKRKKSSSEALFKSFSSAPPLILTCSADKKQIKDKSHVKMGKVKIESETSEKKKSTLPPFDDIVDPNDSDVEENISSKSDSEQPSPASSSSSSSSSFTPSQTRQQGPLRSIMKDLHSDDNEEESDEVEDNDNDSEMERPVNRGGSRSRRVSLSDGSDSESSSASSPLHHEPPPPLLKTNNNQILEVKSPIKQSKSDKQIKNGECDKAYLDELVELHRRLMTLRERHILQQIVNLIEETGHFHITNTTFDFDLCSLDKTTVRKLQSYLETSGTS
Ecoli growth = blocks Escherichia coli growth. AID 1053175. 330,000 tested, 0.21% active. OD600 absorbance (concentration not given with the values). OD600, 23 h; active compounds read low;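 active means OD600 absorbance below the run mean of sample wells minus 3.6 SD, in any replicate, cut at about 0.56 in these data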;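 further: stock transfer was 300 nL into about 60 µL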
An asterisk follows results filed as active; i = inactive; ? = inconclusive; . = no result given; & = joins results of further samples. The list is partial; the hit share may differ from the screen's.

Each structure is followed by: RanGTP-Imp inh	UCH37 inh	FGF22 binding	Vif TR-FRET	HNF4A DNA FP	AF4-AF9 inh	Ecoli growth
CCOC(=O)c1ccc(COC(=O)CCc2nc3ccccc3[nH]c2=O)o1
  -3.6	-36	.	5%	-1.1	.	0.74
CCOC(=O)c1c(C)[nH]c(C(=O)COC(=O)/C=C/c2ccc(OCC#N)c(OC)c2)c1C
  0.1	.	i	.	-3.5	2.4	.
O=C(NC1CCCCC1)C1c2ccccc2OCC(=O)N1C1CC1 (stereo unspecified)
  .	.	i	.	-2.9	1.1	.
Cc1cc(SCC(=O)c2ccc(Cl)cc2)nc(=O)[nH]1
  6.4	7.2	i	.	8.0	-3.6	0.67
CC(C)C(=O)Nc1ncc(Cc2ccccc2Cl)s1
  -1.5	2.8	i	7%	-1.2	-0.5	0.75
CN(C)CCCNC(NC(=O)c1cccs1)C(Cl)(Cl)Cl (stereo unspecified)
  7.1	4.0	.	72%	-2.2	.	0.67
CCC[C@@H]1CCCO[C@@](C(=O)NCCN2CCOCC2)(C(F)(F)F)C1
  -1.8	2.5	i	.	-1.2	-0.8	.
C=Cc1ccc(Cn2c(C)c(C(=O)NCc3ccc4c(c3)OCO4)sc2=O)cc1
  .	.	i	.	-1.5	2.3	.
Cc1nc2c(-c3ccccc3)c[nH]n2c(=O)c1Cc1ccccc1
  -2.4	-19	i	2%	-3.5	2.2	0.68
C[C@@H]1CN(S(=O)(=O)c2c(F)cccc2F)CCN1S(=O)(=O)c1ccc2c(c1)OCCO2
  .	-2.5	i	.	0.1	0.8	0.78
COc1ccc2c(c1OC)C(=O)N1C2SC[C@H]1C(=O)NC1CC1 (stereo partly specified)
  -2.3	-6.4	i	.	3.0	-4.7	0.79
O=C1CC(c2ccc(O)c(O)c2)Oc2cc(O)cc(O)c21 (stereo unspecified)
  -3.5	-1.6	i	.	1.4	1.4	0.74
Cc1occc1-c1nnc(SCC(=O)c2ccc3c(c2)OCCO3)n1CC1CCCO1 (stereo unspecified)
  -1.7	3.2	i	12%	-2.5	-7.2	0.72
CCOC(=O)C(=O)Nc1nnc(COc2ccccc2)s1
  3.3	4.0	i	.	1.5	0.0	0.68
O=C(O)c1nnn(-c2ccc([N+](=O)[O-])cc2)c1-c1ccccc1
  2.8	3.6	i	.	8.6	0.6	0.64
CCSC1=N/C(=C\c2ccc(-c3ccccc3[N+](=O)[O-])o2)C(=O)S1
  -16	10	.	13%	-18	.	0.71
C#Cc1cccc(NC(=O)CSc2nnc(-c3ccc(C(F)(F)F)cn3)o2)c1
  -0.6	4.1	i	-13%	0.9	3.0	0.64
CN1CCC(=O)N(CCSc2ccccc2)CC1
  -4.8	-1.1	i	.	-0.4	-1.5	0.69
Cc1ccc(NC(=O)N2CCC(C(=O)NCC(C)C)CC2)cc1
  4.0	2.7	.	0%	0.1	.	0.7
COc1cc(OC)c([N+](=O)[O-])cc1/C=N/NC(=O)c1ccncc1
  3.3	.	i	-7%	-4.6	-4.7	.
C[C@@H]1CN([C@H](C)CO)C(=O)CCCn2nncc2CO[C@@H]1CN(C)C(=O)c1cc(-c2ccccc2)on1
  .	.	i	.	0.0	3.2&1.5&0.1	.
COc1ccc(CN2C(=O)c3ccccc3C(/C=N\OCc3ccc(F)cc3)C2=O)cc1 (stereo unspecified)
  2.0	.	.	2%	4.6	.	.
COc1ccc(C2=NN(c3nc4ccccc4s3)C(=O)C2)cc1
  0.5	4.7	i	5%	-4.8	-3.9	0.62
CCOC(=O)c1cccc(NC(=O)Nc2cc(OC)ccc2OC)c1
  ?	1.5	.	-3%	-4.1	.	0.67
COc1ccc(C(=O)Nc2ccccc2C(=O)N/N=C/c2ccc(O)c(OC)c2)cc1
  5.3	.	.	-7%	-1.2	.	.
O=C(Nc1cccc(Cl)c1)OCCN1CCN(Cc2ccccc2)CCC1=O
  -0.9	4.8	i	5%	-4.5	-0.1	0.61
CNc1nc(N)c(C(=O)Nc2cc(C)on2)s1
  1.6	9.8	i	18%	0.2	-2.8	0.7
CC(=O)c1cccc(NC(=O)Cn2cnc(S(=O)(=O)N3CCC(C)CC3)c2)c1
  -1.2	1.6	.	?	-2.5	.	0.71
CCN(CC)c1ccc(/C=N/n2nnnc2N)c(O)c1
  7.4	.	.	20%	9.5	.	.
COC(=O)c1ccc(CNC(=O)C2CCC(=O)N(CCCc3ccccc3)C2)cc1 (stereo unspecified)
  4.6	0.2	i	.	-1.7	-1.9	0.62
CC(C)(C)c1nnc2sc(SC/C(O)=C(\C#N)c3nc4ccccc4[nH]3)nn2c1=O
  7.2	.	.	9%	6.2	.	.
O=C(CSc1nc2cc(Cl)ccc2s1)c1ccco1
  5.2	0.6	i	21%	-0.3	0.8	0.66
COc1ccc2[nH]cc(C=O)c2c1
  4.8	2.2	.	-9%	-1.1	.	0.68
COc1cc2ccc(C=O)cc2cc1OC
  .	.	i	3%	3.5	-0.8	.
Cc1c(Br)c([N+](=O)[O-])nn1CC(=O)NCCc1ccc(Cl)cc1
  -5.3	0.8	i	.	1.6	3.2	0.69
Cc1cc(/N=C/C=C2\N(C)c3ccccc3C2(C)C)n(CCC#N)n1
  1.4	.	.	3%	2.4	.	.
CCN1CCN(CCn2c(=S)[nH]c3cc4c(cc3c2=O)OCO4)CC1
  1.2	1.2	.	-1%	1.6	.	0.74
Cc1cc(S(=O)(=O)Nc2c(NC3CCCCC3)c3ccccc3oc2=O)ccc1F
  0.4	-2.6	i	-4%	5.4	-1.8	0.71
COC(=O)c1ccccc1NC(=O)CSc1nnc(-c2cccnc2)n1C
  -1.5	4.8	.	-10%	1.8	.	0.75
O=C(NCCCN1CCCC1=O)c1cccc(S(=O)(=O)N2CCN(c3ccccc3)CC2)c1
  0.6	2.3	i	.	-3.1	-0.2	0.72
CCOc1ccc(S(=O)(=O)N2CCN(C(=O)CCC(=O)N3CCOCC3)CC2)cc1
  2.6	-0.3	i	2%	2.3	-7.0	0.66
O=C(NC(Cc1ccccc1)C(=O)O)c1ccc(S(=O)(=O)N2CCOCC2)cc1 (stereo unspecified)
  -3.6	2.5	.	4%	0.5	.	0.73
CC(C)(C)CC(=O)NC(=S)NCc1ccccc1
  1.7	-0.9	i	0%	0.1	-1.7	0.72
CC1=C(C(=O)OC(C)C)C(c2cccc(F)c2)N2C(=O)C(C)SC2=N1 (stereo unspecified)
  -3.3	2.5	.	-6%	-0.4	.	0.73
NS(=O)(=O)c1ccc(NC(=O)CCCC(=O)O)cc1
  0.4	4.1	i	20%	2.6	-2.6	0.65
COc1cc(CNCc2cccs2)ccc1OCc1cccs1
  0.2	1.5	.	1%	3.6	.	0.59
Cc1cccc(NC(=O)N[C@@H](C)C(=O)O)c1
  3.4	3.4	.	-1%	-1.2	.	.
CCc1noc(C)c1C(=O)N1CCCC(C(=O)c2ccc(OC)c(F)c2)C1 (stereo unspecified)
  -1.0	-13	i	3%	3.4	-1.6	0.71
COc1cc2cnncc2cc1OC
  -4.5	1.4	.	15%	1.1	.	0.65
COC(=O)c1cc([N+](=O)[O-])ccc1N1CCN(Cc2ccccc2)CC1
  -0.7	7.5	.	2%	1.0	.	0.7

(cont.)
Each structure is followed by: RanGTP-Imp inh	UCH37 inh	FGF22 binding	Vif TR-FRET	HNF4A DNA FP	AF4-AF9 inh	Ecoli growth
CCNCCC(=O)N1c2ccccc2Sc2ccc(NC(=O)OCC)cc21
  4.8	2.2	.	-11%	0.9	.	0.76
Cn1c(CCN2CCOCC2)nc2cc(NC(=O)COc3ccc([N+](=O)[O-])cc3)ccc21
  1.7	4.3	i	.	-0.9	-3.3	0.69
CCC1(CC)NC(=O)N(CC(=O)OCC(=O)Nc2ccc(OC(F)(F)F)cc2)C1=O
  .	2.1	i	.	-1.1	2.3	0.64
COc1ccc2c(=O)cc(-c3cccnc3)oc2c1OC
  -1.1	4.0	i	-3%	-2.5	1.0	0.65
Cc1cccc(C(=O)N/N=C/c2ccc3c(c2)OCO3)n1
  1.7	.	.	21%	-3.6	.	.
Cc1ccc(NC2=NCC(=O)N2Cc2ccc3c(c2)OCO3)cc1
  4.8	3.1	.	-2%	-1.9	.	0.72
O=C(c1ccccc1)c1ccc(N2CCN(C(=O)c3cccc(F)c3F)CC2)c(F)c1
  0.4	1.3	i	.	-1.3	-11	0.73
COc1ccccc1-n1c(SCC(=O)Nc2cc(C)on2)nc2c([nH]c3ccccc32)c1=O
  -1.6	-1.1	i	-6%	6.8	0.8	0.74
Oc1c(Cl)cc(Cl)c2cccnc12
  -1.3	2.2	i	-3%	-0.3	-3.4	0.071*
COc1cc(CC(=O)OCC(=O)NC2CC2)cc(OC)c1OC
  0.2	-0.4	i	18%	-4.1	-2.5	0.66
Cc1ccc2nc(SC(C(=O)Nc3ccc(F)cc3)c3ccccc3)[nH]c2c1 (stereo unspecified)
  2.7	1.2	.	-8%	-0.2	.	0.7
COc1cc(/C=N/Nc2cc(C)nc(NS(=O)(=O)c3ccccc3)n2)ccc1O
  0.5	.	i	.	3.8	-5.0	.
COc1cccc(CCNC(=O)C2CCCN(c3ncnc4c3nc3n4CCCCC3)C2)c1OC (stereo unspecified)
  -3.4	3.5	i	.	2.2	-2.7	0.68
O=C(/C(=N\Nc1ccc(Br)cc1)Sc1nnnn1-c1ccccc1)c1ccccc1
  9.7	.	.	30%	4.0	.	.
O=c1[nH][nH]c2c1C(c1cccc(C(F)(F)F)c1)OC(CCc1ccccc1)C2 (stereo unspecified)
  .	.	i	.	1.2	-0.3	.
O=C(Nc1cccc2c1CCCC2)c1cc(C2CCCCN2C(=O)c2cccs2)on1 (stereo unspecified)
  .	.	i	.	-2.8	2.3	.
O=C(NCC[C@@H]1C[C@@H]2C=C[C@H]1C2)c1cc(COc2ccc(F)cc2F)on1
  5.8	-0.7	i	.	-1.4	-1.0	0.67
CC(=O)C1=C(C)N(Cc2ccco2)C(=O)C1(NC(=O)C1CCCCC1)C(F)(F)F (stereo unspecified)
  ?	2.5	.	-4%	1.4	.	0.7
COc1ccc(OC)c(Nc2nc(N)c([N+](=O)[O-])c(N3CCOCC3)n2)c1
  -4.0	5.9	i	-4%	4.5	5.1	0.66
O=C(OCCC1Oc2cccnc2NC1=O)c1ccc(F)cc1 (stereo unspecified)
  0.7	0.9	i	-8%	1.3	0.2	0.72
Cc1cccc(C)c1N=Nc1c(C)cc(O)cc1C
  -1.9	6.3	i	-2%	-2.9	35*	0.63
CN(C)c1cccc2c1c(NC(=O)c1ccc(F)cc1)nn2C
  -1.7	2.2	i	17%	-2.1	.	0.64
CCOC(=O)/C(=C/C=C1\Sc2cc(OCC)c(OCC)cc2N1CC)C(C)=O
  -9.3	7.3	i	1%	-104	3.8	.
Cc1c(CCC(=O)N[C@@H](C)C(=O)O)c(=O)oc2c(C)c3oc4c(c3cc12)CCCC4
  -0.9	-62	i	-9%	-2.7	-1.5	0.66
COCC(=O)Nc1nc2ccc(S(C)(=O)=O)cc2s1
  -0.5	-1.6	.	20%	1.8	.	0.68
CC1CC(C)CN(Cc2nc(N)nc(Nc3ccccc3)n2)C1 (stereo unspecified)
  3.0	5.1	.	2%	-0.5	.	0.68
